Screening results as filed in PubChem BioAssay.
HPGD inh: HPGD (human) dehydrogenase inhibition; P15428; purified HPGD, NADH fluorescence kinetic, PGE2 substrate; Potency, µM, without a hit: at the top dose activity change, negative = inhibition, usual class: inhibitors; 150,000 tested, 4.3% active; AID 894; active = well fitted inhibition curve with a large enough effect (not every such curve was filed as active); inconclusive = small, poorly fitted or top-dose-only effect, or another doubt; inactive = no such curve, though single readings can be large or run the other way;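 also: top concentration of the series not given in the record; plate controls included wells without enzyme; inactives centre near -10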
Target sequence (P15428 whole entry, looked up): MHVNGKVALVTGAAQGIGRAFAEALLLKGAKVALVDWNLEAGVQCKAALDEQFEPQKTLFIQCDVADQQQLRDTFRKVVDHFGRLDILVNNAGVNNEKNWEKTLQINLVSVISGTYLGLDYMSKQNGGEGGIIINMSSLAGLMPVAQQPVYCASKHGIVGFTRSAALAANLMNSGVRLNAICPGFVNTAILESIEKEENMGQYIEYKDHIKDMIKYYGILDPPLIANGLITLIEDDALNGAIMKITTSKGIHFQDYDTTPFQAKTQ
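NADH formation kinetics: reaction with 30 uM PGE2 and 1 mM NAD+ (final), 20 nM enzyme, Tris-HCl pH 8 with Tween 20, after 15 min compound preincubation at room temperature. Fluorescence change, last versus first of five reads.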
Starred values were filed as active, the others as inactive; ? = inconclusive; & = joins results of further samples. % is scaled to controls: 0 for no effect and ±100 for the full control effect; potency is read from the fitted curve at half-maximal effect. An excerpt; rates above refer to the full screens.

Structure	HPGD inh
C=CCNC(=S)NNC(=O)c1ccc(OCCC)cc1	-24.1%
CCN1CCN(C(=O)C2(NC(=O)Nc3cccc(F)c3)CCCCC2)CC1	-13.4%
CC(=O)OCC1OC(Nc2cccc(C)c2)C(OC(C)=O)C(OC(C)=O)C1OC(C)=O (centres undefined)	-4.4%
Cc1cc(C)n(-c2nc(C)nc(NCc3ccccc3)n2)n1	-3.9%
CC1CCCN(CCCNC(=O)C2CC(=O)N(c3ccc(F)c(Cl)c3)C2)C1 (centres undefined)	-5.8%
CC(C)c1nc2oc3c(NCc4cccnc4)ncnc3c2c2c1CCC2	?
C/C(=N/NC(=O)c1ccc(O)cc1)c1cccc([N+](=O)[O-])c1	-11.9%
COc1cccc(CNC(=O)Cc2c(C(=O)O)[nH]c3ccccc23)c1	-19.8%
CC(=O)Nc1cc(NC(=O)C2C3C=CC(C3)C2C(=O)O)ccc1Cl (centres undefined)	-8.7%
CCc1ccc2[nH]c(=O)c(CN(CCCN3CCOCC3)C(=O)Nc3ccc(Cl)cc3)cc2c1	-13.5%
CCCc1c(C)c2cc(C)ccc2[nH]c1=O	-3.9%
COc1ccc(NC(=O)N(CCc2ccccc2)Cc2cc3c(C)cc(C)cc3[nH]c2=O)cc1	-8.1%
Cc1ccc2[nH]c(=O)c(CN(CCCN3CCOCC3)C(=O)NC3CCCCC3)cc2c1	?
O=C(NC(=S)Nc1ccc2c(c1)OCCO2)c1cccc2ccccc12	-19.1%
CC(C)CCNC(=O)NC(=O)COC(=O)C1=COCCO1	-6.4%
Cc1ccc(C)c(-n2nnnc2SCC(=O)Nc2cccc(-c3nnc4n3CCCCC4)c2)c1	-16.6%
O=C(NC1CCS(=O)(=O)C1)c1cccc(S(=O)(=O)N2CCCCC2)c1 (centres undefined)	-0.1%
CCCOc1ccc(C(=O)NC(=S)NCc2cccnc2)cc1	-15.1%
COC(=O)[C@@]1(Cc2ccc(OC)cc2)[C@H]2c3cc(C(=O)N4CCCC4)n(CCc4c[nH]c5ccc(OC)cc45)c3C[C@H]2CN1C(=O)c1ccccc1	-9.8%
CC[n+]1ccc(C[n+]2ccccc2)c2ccccc21	?
Cc1ccc(-c2cc(C(=O)NCc3ccc4c(c3)OCO4)[nH]n2)c(O)c1C	-6.3%
CCN(c1ccccc1)S(=O)(=O)c1ccc(NCC2COc3ccccc3O2)nc1 (centres undefined)	?
CC(Oc1ccc(Cl)cc1)c1ccnn1S(=O)(=O)c1ccc(Cl)cc1 (centres undefined)	-11.1%
Cc1cccc(CS(=O)(=O)Cc2ccc(C(=O)NCc3cccnc3)o2)c1	-13.9%
CC1CC(=O)C=C(O)C1C(=O)OC(C)(C)C (centres undefined)	-2.9%
COC(=O)CCC(=O)OC1(C)C(=O)C2=CN(Cc3ccc4c(c3)OCO4)C(c3ccc(OC)cc3)=CC2=C(Br)C1=O (centres undefined)	-8.6%
CCOC(=O)N1CCC(NC(=O)c2cc3c(-c4ccc(OC)c(OC)c4)nn(C)c3s2)CC1	?
O=C(Nc1ccc2c(c1)OCO2)c1ccc(NC2CC2)c([N+](=O)[O-])c1	-15.2%
COCCn1c(=NC(=O)c2cccs2)sc2cc(NC(C)=O)ccc21	-5.5%
O=C(NC1CCCC1)C1CCCN1C(=O)Nc1ccccc1Cl (centres undefined)	-6.2%
CC(=O)N1CCCc2cc(S(=O)(=O)Nc3ccc4c(c3)OCO4)ccc21	-11.6%
CC(C)c1nnc(NC(=O)CCS(=O)(=O)c2nc(-c3cccs3)cc(C(F)(F)F)n2)s1	?
O=C(O)C1CC(c2ccc(F)cc2)=NO1 (centres undefined)	-10.1%
CC(=O)c1cccc(NC(=O)NC(C)C2CCCO2)c1 (centres undefined)	0.1%
CCOc1ccc(N2C(=O)CN(C)C2=S)cc1	-11.3%
Cc1ccc(NC(=S)N2CCN(CCN3C(=O)c4cccc5cccc(c45)C3=O)CC2)cc1	-3.5%
COc1ccc(S(=O)(=O)n2nc(C)cc2C)c(C)c1C	-8.3%
O=C(NCc1ccc2c(c1)OCO2)c1cccc(Cl)c1	3.55µM*
O/N=C1/C2C3CC4C5C3C1C5C1(OCCO1)C42 (centres undefined)	-8.0%
O=C1CSc2ccc(C(=O)NCCC3=CCCCC3)cc2N1	-6.4%
COc1ccc(OC)c(NC(=O)C2CCCN2C(=O)OCc2ccccc2)c1 (centres undefined)	-8.9%
O=c1[nH]cnc2scc(-c3ccc(-c4ccccc4)cc3)c12	-2.6%
COc1ccc(-c2nc(-c3ccc(Br)o3)no2)cc1	-7.6%
CCn1c(SCc2ccc([N+](=O)[O-])cc2)nnc1C(C)NC(=O)c1ccc(C)cc1 (centres undefined)	-7.1%
O=C(NCc1ccco1)Nc1ccc(Br)cc1	-8.2%
COc1ccc(NC(=O)c2cccc(F)c2)cc1Cl	-30.0%
Cn1c(=O)c2ncn(CC(=O)N/N=C/c3ccco3)c2n(C)c1=O	-11.0%
Cc1cc(NCc2ccc(F)cc2Cl)n2nnnc2n1	-12.6%
CCCn1c(=O)c2ccccc2n2c(SCCOc3ccccc3)nnc12	-7.0%
CCCOc1ccc(Cc2nn3c(=O)/c(=C/c4ccco4)sc3nc2=O)cc1	-9.6%
CCOC(=O)N1CCC(NC(=O)CCC(=O)N2CC(C)Oc3ccc(C)cc32)CC1 (centres undefined)	-1.8%
CC(C)(CO)Nc1ccc([N+](=O)[O-])cc1[N+](=O)[O-]	-6.1%
CCS(=O)(=O)n1nc(-c2ccc(Cl)cc2)nc1SCc1ccccc1	-22.7%
CCOC(=O)c1c(-c2ccccc2Cl)csc1NC(=O)c1cc(S(=O)(=O)N2CCOCC2)ccc1C	?
Cc1ccc(Nc2nnc(SCC(=O)c3ccc(Br)s3)s2)c(C)c1	-14.5%
CCN(CC)C(=O)c1cncc(C(=O)N(CC)CC)c1-c1ccccc1	-8.4%
O=C(COC(=O)CCc1c[nH]c2ccccc12)NC1CCS(=O)(=O)C1 (centres undefined)	-3.3%
O=C(c1ccco1)N1CCC[C@@]2(CCN(c3ccccc3)C2)C1	-5.2%
Cc1ccc(Cl)cc1NC(=O)Cn1cccc1	-15.4%
CC(C)(C)C(=O)Nc1cc(C(F)(F)F)ccc1N1CCOCC1	-8.3%

Continuation:
Structure	HPGD inh
COc1ccc(CCNC(=O)C2CCN(S(=O)(=O)c3ccc(Cl)cc3)CC2)cc1OC	-7.9%
CCOC(=O)N1CCN(C(=O)C2CC(c3ccc(F)cc3)=NO2)CC1 (centres undefined)	0.1%
Cc1ccc(-c2cc(C(=O)O)c3sc(N4CCCCC4)nc3n2)cc1	?
Cc1ccc(S(=O)(=O)Cn2nnnc2C(c2ccccc2)N2CCN(c3ccccc3)CC2)cc1 (centres undefined)	-1.0%
CS/C(=N\N(C)C(N)=O)c1ccccc1	-1.0%
CCOC(=O)N1CCN(C(=O)CN(Cc2ccc(Cl)cc2)S(C)(=O)=O)CC1	-8.8%
COCCNc1nc2ccccc2nc1NS(=O)(=O)c1ccc(C)cc1C	?
CC(C)(C)OC(=O)NCCCC1=CC2=CC(=O)C(C)(OC(=O)C3CCCC3)C(=O)C2=CO1 (centres undefined)	-11.0%
CCn1c(SCC(=O)Nc2ccccc2C(=O)OC)nnc1-c1cccc(C)c1	-10.3%
Cc1nn(-c2nc(-c3ccco3)cc(C(F)(F)F)n2)c(C)c1Cl	-8.8%
O=C(O)CC(NC(=O)C1c2ccccc2Oc2ccccc21)c1ccc(Cl)cc1 (centres undefined)	-4.4%
Cc1cc(C)n2c(SCc3ccc(Cl)cc3Cl)nnc2n1	?
COc1ccc2[nH]c(=O)c(CN(Cc3cccnc3)C(=O)Nc3ccccc3)cc2c1	-28.2%
CSc1cccc(NC(=O)CSc2ccc(C)cc2)c1	-11.7%
CC(C)SCc1nc2ccccc2[nH]1	-23.0%
CN(C)C(=O)Nc1ccc(F)cc1F	-5.6%
CC(=O)Nc1ccc2c(c1)nc(CN1CCCC1)n2C	-10.5%
Cc1cccc(C)c1Nc1nnc(SC/C(O)=C(\C#N)c2nc3ccccc3[nH]2)s1	-7.4%
COc1ccc(-n2cccc2C=O)cc1OC	1.8%
O=C(Cn1cnc2ccccc2c1=O)N1CCN(Cc2ccc3c(c2)OCO3)CC1	-3.1%
CN(C)Cc1cc(C(C)(C)C)cc(CN(C)C)c1O	-8.6%
Cc1cc2nnc(SC3CCOC3=O)n2c2ccccc12 (centres undefined)	-15.8%
COc1ccc(C(=O)Nn2c(SCC(=O)NC3CCCCC3)nc3ccccc3c2=O)cc1	-19.6%
Nc1nc(-c2cccnc2)nn1C(=O)c1ccco1	-0.1%
COC(=O)c1ccc(N2C(=O)CC(N3CCN(C(=O)c4ccco4)CC3)C2=O)cc1 (centres undefined)	-1.1%
Cc1ccc(C(=O)NC2(C(F)(F)F)NC(=O)N(c3ccc(Cl)cc3)C2=O)cc1 (centres undefined)	-7.7%
COC(=O)c1ccc2nc(NC(=O)CSCC(=O)OCC(=O)c3ccccc3)sc2c1	-22.6%
COC(c1ccccc1)c1c(-c2ccccc2)nn(C)c1Cl (centres undefined)	-2.3%
Cc1cc(N2CCC(C)CC2)c(F)cc1[N+](=O)[O-]	-15.2%
Cn1c(C(C#N)C2=C(Cl)C(=O)N(c3ccccc3)C2=O)nc2ccccc21 (centres undefined)	-22.9%
COc1nc(NCC(C)C)nc(Oc2ccc(=O)n(-c3ccccc3)n2)n1	-1.5%
Cc1nn(CC(=O)Nc2ccc(C(=O)N3CCCC3)cc2)c(=O)c2ccccc12	14.1µM*
CCOC(=O)C(NC(C)=O)(Nc1ccc(S(N)(=O)=O)cc1)C(F)(F)F (centres undefined)	-9.3%
Cc1ccc(C)c(NC(=S)N2CCC(c3nc4ccccc4s3)CC2)c1	-10.9%
COc1cc(C(O)P(=O)(OC(C)C)OC(C)C)cc(OC)c1OC (centres undefined)	-6.8%
CC(=O)[C@@H]1[C@H]2[C@H](C(=O)[C@H]3OC[C@@H]2O3)[C@H]2C=Cc3ccccc3N21	-24.9%
O=C(NC(=S)Nc1ccccc1N1CCCC1)c1ccc(-c2cccc([N+](=O)[O-])c2)o1	25.1µM*
Cc1cc(C)n(Cc2ccc(NC(=O)c3nn(C)cc3[N+](=O)[O-])cc2)n1	?
CC1(C)OC(=O)C(=CNC(CCC(N)=O)C(=O)O)C(=O)O1 (centres undefined)	-6.2%
Brc1ccc(Oc2nnnn2-c2ccccc2)cc1	-8.0%
CCOC(=O)Cc1csc(NC(=O)CSc2nnc(-n3nc(C)cc3C)c3ccccc23)n1	-3.8%
O=C(O)/C=C/C=C/c1ccccc1	-20.7%
CCc1nnc(NC(=O)CSc2nc3c(C)cccc3[nH]2)s1	-4.9%
COc1ccccc1-c1noc(-c2ccccc2C(=O)N2CCOCC2)n1	1.3%
COc1ccc(C(=O)OCCNC(=O)c2ccncc2)cc1OC	-9.0%
Cc1cccn2cc(CNc3ccccc3)nc12	-6.6%
CCNc1nc(NC(C)C)nc(SCCOc2ccc(C)cc2)n1	-11.2%
Cc1ccc(S(=O)(=O)N(CC(O)CN2CCCC2)c2ccccc2)cc1 (centres undefined)	-2.7%
C=CCn1c(=NC(=O)c2ccc(S(=O)(=O)N3CCCc4ccccc43)cc2)sc2cc(S(N)(=O)=O)ccc21	-9.4%
CN(C)S(=O)(=O)c1cccc(NC(=S)N/N=C/C(c2ccccc2)c2ccccc2)c1	17.8µM*
CC(C)C(C(=O)O)N1C(=O)/C(=C/C=C/c2ccco2)SC1=S (centres undefined)	3.55µM*
OC(COc1ccc2ccccc2c1Br)Cn1ccnc1 (centres undefined)	-2.7%
C[N+](C)(C)[C@H](Cc1c[nH]c(=S)[nH]1)C(=O)O	-5.0%
S=c1nc(-c2ccccc2Br)[nH][nH]1	12.6µM*
CCOc1ccc(C(=O)Nc2ccc(NC(=O)c3cccs3)cc2)cc1[N+](=O)[O-]	-10.2%
C=CCNc1oc(Cc2cccc3ccccc23)nc1C#N	?
CC[C@@H]1C(c2cccc(Cl)c2)=NN(c2ccccc2)[C@H]1C(=O)N1CCOC1=O	?
Cc1nnc(NC(=O)C2CCN(c3nnnn3-c3ccccc3)CC2)s1	-5.6%
O=C(Nc1cccc(C(F)(F)F)c1)c1cccnc1NCCc1ccccc1	?
CCCCN1C(=O)C(O)(CC(=O)c2c(C)n[nH]c2C)c2cc(Br)ccc21 (centres undefined)	5.5%
COC(=O)[C@H](Cc1ccccc1)NC(=O)O[C@H]1C(=O)c2cc(OC)ccc2O[C@@H]1c1ccc(OC)c(Br)c1	-4.5%&-18.3%

Among those listed so far, 6 contain a CF3 group:
Structure	HPGD inh
CC(C)c1nnc(NC(=O)CCS(=O)(=O)c2nc(-c3cccs3)cc(C(F)(F)F)n2)s1	?
CC(C)(C)C(=O)Nc1cc(C(F)(F)F)ccc1N1CCOCC1	-8.3%
Cc1nn(-c2nc(-c3ccco3)cc(C(F)(F)F)n2)c(C)c1Cl	-8.8%
Cc1ccc(C(=O)NC2(C(F)(F)F)NC(=O)N(c3ccc(Cl)cc3)C2=O)cc1 (centres undefined)	-7.7%
CCOC(=O)C(NC(C)=O)(Nc1ccc(S(N)(=O)=O)cc1)C(F)(F)F (centres undefined)	-9.3%
O=C(Nc1cccc(C(F)(F)F)c1)c1cccnc1NCCc1ccccc1	?
